Screens as filed in PubChem.
MenB inh: M. tuberculosis MenB inhibitors, primary screen, biochemical, absorbance | 1,4-dihydroxy-2-naphthoyl-CoA synthase (Mycobacterium tuberculosis (strain ATCC 25618 / … | MenB enzyme assay, absorbance read-out; some hits fall short of the stated cut | inhibition, %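 (about 12 µg/mL by stock and volumes)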 | 100,000 compounds, 0.43% hits | AID 540299, 2011;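 active = mean of two replicates above 30%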;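 note: 0% = no compound and 100% = wells with inactive enzyme; the first replicate is given; strong numbers were not always called active; inactives centre near -10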
Target sequence (P9WNP5 whole entry, looked up): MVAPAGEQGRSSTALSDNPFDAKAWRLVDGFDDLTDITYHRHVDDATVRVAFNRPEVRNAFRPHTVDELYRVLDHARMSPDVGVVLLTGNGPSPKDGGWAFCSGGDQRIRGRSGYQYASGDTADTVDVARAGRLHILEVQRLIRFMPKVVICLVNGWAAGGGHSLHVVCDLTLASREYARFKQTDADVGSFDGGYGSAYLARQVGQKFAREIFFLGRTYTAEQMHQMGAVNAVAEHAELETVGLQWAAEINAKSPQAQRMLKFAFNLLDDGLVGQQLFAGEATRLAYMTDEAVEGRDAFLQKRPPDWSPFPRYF
MbtI inh: MbtI salicylate synthase inhibitors, primary screen, biochemical, fluorescence intensity | purified MbtI enzyme, fluorescence intensity read-out | inhibition, %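 (about 17 µg/mL by stock and volumes)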 | 100,000 compounds, 0.89% hits | AID 493033, 2011;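 active = above 50% in both replicates, above 80% if mildly self-fluorescent; inactive = the rest, strongly fluorescent compounds included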;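 note: 0% = mean of negative and 100% = mean of positive controls; one replicate is shown; some compounds called inactive have numbers as strong as hits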
Polio RdRp inh: poliovirus RdRp elongation inhibitors, primary screen, biochemical, fluorescence polarization, total intensity. Genome polyprotein (Poliovirus type 1 (strain Mahoney)), P03300. poliovirus polymerase elongation; hits give low values. % elongation, % (compound at 16.7 µg/mL). 150,000 compounds, 0.66% hits; in the data active = % elongation below about 90%; note: some results filed as inactive read as strong as hits
Target sequence (P03300 1749-2209 limits assumed): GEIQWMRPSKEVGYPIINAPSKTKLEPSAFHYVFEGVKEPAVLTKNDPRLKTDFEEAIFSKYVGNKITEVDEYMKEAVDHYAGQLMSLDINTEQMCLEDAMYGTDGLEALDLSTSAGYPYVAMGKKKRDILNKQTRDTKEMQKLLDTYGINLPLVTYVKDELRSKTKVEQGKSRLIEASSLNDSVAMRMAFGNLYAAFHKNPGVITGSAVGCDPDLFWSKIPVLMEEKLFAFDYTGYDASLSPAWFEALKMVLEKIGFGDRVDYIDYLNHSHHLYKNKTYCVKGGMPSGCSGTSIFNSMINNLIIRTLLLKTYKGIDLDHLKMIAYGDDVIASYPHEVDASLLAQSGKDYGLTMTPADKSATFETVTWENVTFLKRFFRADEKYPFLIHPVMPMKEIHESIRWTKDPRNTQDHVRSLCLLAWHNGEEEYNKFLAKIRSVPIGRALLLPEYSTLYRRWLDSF
Polio RdRp inh intensity: second read-out of Polio RdRp inh, no call of its own (marks repeat the call); % elongation; measured here: total intensity read-out; formula for this scale not given here;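 total fluorescence in place of polarization; lower means less elongation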
An asterisk follows results filed as active; x = not tested or not shown.

SMILES	MenB inh	MbtI inh	Polio RdRp inh	Polio RdRp inh intensity
CC(C)C(C(=O)O)N1C(=O)/C(=C/c2ccccn2)SC1=S (stereo unspecified)	-174	22	97	102
O=C1Nc2ccccc2/C1=C/c1ccc(CN2C(=O)c3ccccc3C2=O)o1	-7	-8	100	105
Cc1cc(NC(=O)c2cc(-c3ccc(F)cc3)no2)nn1CC(=O)N1CCOCC1	-16	-11	106	101
NC1=C(C(=O)OCc2ccccc2)C2(C(=O)Nc3ccc(Br)cc32)C2=C(O1)C(=O)CCC2 (stereo unspecified)	8	x	103	105
Nc1cc(=O)[nH]c(SCC(=O)c2cccs2)n1	-12	1	99	105
CC(C)CSc1nnc(Cn2cnc3ccccc32)n1-c1ccccc1Cl	-12	9	102	109
CCn1nc(C)c(Br)c1-c1nc(-c2cccc(C(F)(F)F)c2)no1	17	-1	103	96
Brc1ccc2nc(-c3ccco3)c(Nc3ccccc3)n2c1	-22	-6	102	103
O=C(CC(C(=O)O)N1CCNCC1)Nc1ccccc1Cl (stereo unspecified)	3	-10	101	103
CCC1=[N+]([O-])C(C)(C)C(c2ccccc2)=[N+]1[O-]	-5	-10	104	103
CN(C)P(=NC(=S)c1cccn1C)(N(C)C)N(C)C	-24	19	98	96
CC(C)(C)CC(C)(C)NC(=O)Cc1cccs1	5	-4	99	104
Nc1cc(=O)[nH]c2nnc(SCc3ccc(Br)cc3)n12	11	34	105	99
COc1cccc(Nc2ncc3c(n2)CCNC3)c1	-43	-1	105	104
CCCCS(=O)(=O)c1c(-c2ccccc2)c2cc(Cl)ccc2[nH]c1=O	-12	x	104	105
CN(CC(=O)N1CCCC1c1nc2ccccc2s1)S(=O)(=O)c1ccc(Cl)s1 (stereo unspecified)	-41	-4	97	96
CCOC(=O)c1ccc(NC(=O)CC#N)cc1	-27	2	103	95
O=C(NCC1(N2CCCCC2)CCCCC1)c1ccc2c(=O)n3c(nc2c1)CCCCC3	-20	1	104	107
NC(=O)CNS(=O)(=O)c1ccc(Br)c(C(=O)O)c1	-6	-4	101	103
CSc1nc2sc3c(c2c(=O)n1-c1cccc(Br)c1)CC(C)(C)OC3	-4	-147	100	103
O=C1C2CCCN2C(=O)C2CCCN12 (stereo unspecified)	-15	-6	105	105
CN1CCC2(CC1)CC(NC=O)c1ccccc1O2 (stereo unspecified)	-9	4	104	103
CCOc1ccc(-c2cc3nc(C4CCN(C(=O)OC(C)(C)C)CC4)c(C(=O)O)cn3n2)cc1	0	-29	98	96
Cc1ccc(COC(=O)c2ccc(=O)[nH]n2)cc1	4	-3	105	100
O=C(NCc1nc(-c2ccccc2F)no1)C1CC1	13	-20	104	102
O=C(c1cc2ccccc2oc1=O)N1CCCCCC1	-10	2	104	99
COc1cccc(C(=O)Nc2nncs2)c1	-36	29	104	106
O=C(O)CSc1nnc2n1-c1ccc(Cl)cc1NN2	-34	-2	72	140
ClC(=NC1CC1)c1ccccc1	-16	-3	99	98
NC(=O)c1cn(-c2ccccc2)nc1-c1ccccc1	7	-21	102	104
CN(C)CC(O)COc1ccc2ccccc2c1 (stereo unspecified)	-1	50	102	103
O=C(O)/C=C/C(=O)NC1CCCCC1	-30	1	103	102
COc1ccc(-c2cn3cc(Br)ccc3n2)cc1	x	-4	100	106
COC(=O)c1c(NC(=O)CN2C(=O)c3cccc4cccc2c34)sc2c1CCCC2	1	-17	103	105
Cc1cc(NC(=O)c2cc(-c3ccc(F)cc3)no2)nn1CC(=O)NCc1ccco1	5	19	101	97
COc1cccc(C(=O)Cn2nc(-c3ccco3)ccc2=O)c1	-34	32	101	102
Cc1ccc2c(cnn2C(=O)CCCC(=O)N2CCN(C)CC2)c1	13	-5	99	102
Cc1ccc(C(=O)N2CC(=O)Nc3ccccc32)cc1	-19	-6	101	100
Cc1cc(SCC(=O)OCC(=O)N2CCCC2)c(C)cc1Br	x	2	97	102
O=C(Cn1c2ccccc2c2cn[nH]c(=O)c21)NCCC1=CCCCC1	8	-2	102	103
Cc1noc(C)c1CSc1nnc(-c2ccccc2)o1	-13	1	103	104
CC12CC3(C)CC(C)(C1)CC(C(=O)NC(C)(C)CO)(C2)C3	-20	-14	99	103
CC1CN(C(=O)COC(=O)c2ccc(S(=O)(=O)C(F)F)cc2)CC(C)O1 (stereo unspecified)	-9	1	108	103
Cn1c(=NC(=O)Cc2cccs2)sc2cc(F)ccc21	x	-5	103	108
Cc1cc(/C=N/NS(=O)(=O)c2cccc(C(F)(F)F)c2)no1	14	13	101	102
Cc1nn(-c2ccccc2)nc1CNS(=O)(=O)c1c(C)noc1C	-15	-1	104	114
Cc1cc[n+](CCC(=O)O)c2ccccc12	8	x	105	109
O=C1NC(=S)S/C1=C\c1c(NCc2ccco2)nc2ccccn2c1=O	-71	-161	108	176
C=CCn1c(=O)c2c(ncn2C)n(C)c1=O	0	-11	99	104
CC(C)(C)c1cc(C(=O)/C(C#N)=C/Nc2ccccc2)no1	-32	8	105	95
O=C(Nc1ccccc1)C1CCCN1C(=O)Nc1ccc(F)cc1 (stereo unspecified)	-25	-6	107	100
CCn1c2ccccc2c2cc(C=Nc3ccc(S(N)(=O)=O)cc3)ccc21	-54	-91	100	102
CC(C#N)OC(=O)c1ccccc1Oc1ccccc1 (stereo unspecified)	-7	19	103	102
Oc1ccc(Oc2ccc(Oc3ccc(O)cc3)cc2)cc1	-78	2	101	98
COc1cc2c(cc1OC)C(C)N(C(=O)CN1C(=O)CCc3ccccc31)CC2 (stereo unspecified)	-11	-6	102	107
O=C(Cc1cn2ccsc2n1)OCC(=O)c1ccccc1	-16	-2	102	105
O=C(N/N=C\c1c(Cl)cccc1Cl)c1nc(CS(=O)(=O)c2ccc(Cl)cc2)no1	2	7	104	95
CC(=O)Nc1ccc(NC(=S)NC(=O)C2CCCC2)cc1	5	14	100	101
N#Cc1ccc(Oc2ncnc3c2oc2ccccc23)cc1	4	0	101	107
O=C(Nc1ccc(S(=O)(=O)N2CCOCC2)cc1)c1ccc(Br)s1	-3	-3	103	105

Laid out differently: results already given
Second line of a record: MenB inh, MbtI inh, Polio RdRp inh, Polio RdRp inh intensity
Cc1cc[n+](CCC(=O)O)c2ccccc12
  8, x, 105, 109
O=C1NC(=S)S/C1=C\c1c(NCc2ccco2)nc2ccccn2c1=O
  -71, -161, 108, 176
C=CCn1c(=O)c2c(ncn2C)n(C)c1=O
  0, -11, 99, 104
CC(C)(C)c1cc(C(=O)/C(C#N)=C/Nc2ccccc2)no1
  -32, 8, 105, 95
O=C(Nc1ccccc1)C1CCCN1C(=O)Nc1ccc(F)cc1 (stereo unspecified)
  -25, -6, 107, 100
CCn1c2ccccc2c2cc(C=Nc3ccc(S(N)(=O)=O)cc3)ccc21
  -54, -91, 100, 102
CC(C#N)OC(=O)c1ccccc1Oc1ccccc1 (stereo unspecified)
  -7, 19, 103, 102
Oc1ccc(Oc2ccc(Oc3ccc(O)cc3)cc2)cc1
  -78, 2, 101, 98
COc1cc2c(cc1OC)C(C)N(C(=O)CN1C(=O)CCc3ccccc31)CC2 (stereo unspecified)
  -11, -6, 102, 107
O=C(Cc1cn2ccsc2n1)OCC(=O)c1ccccc1
  -16, -2, 102, 105
O=C(N/N=C\c1c(Cl)cccc1Cl)c1nc(CS(=O)(=O)c2ccc(Cl)cc2)no1
  2, 7, 104, 95
CC(=O)Nc1ccc(NC(=S)NC(=O)C2CCCC2)cc1
  5, 14, 100, 101
N#Cc1ccc(Oc2ncnc3c2oc2ccccc23)cc1
  4, 0, 101, 107
O=C(Nc1ccc(S(=O)(=O)N2CCOCC2)cc1)c1ccc(Br)s1
  -3, -3, 103, 105

(further entries)
SMILES	MenB inh	MbtI inh	Polio RdRp inh	Polio RdRp inh intensity
N#Cc1cc2c(nc1S(=O)Cc1ccc(Cl)cc1)CCCC2 (stereo unspecified)	-14	-4	104	95
CCCNc1cc(C)nc2nc(-c3ccc(OC)cc3)nn12	7	-51	101	104
COC(=O)c1cc2c(N)c(C(=O)c3cc(C#N)c(SC)nc3C)sc2nc1C	-21	-3	104	121
COc1ccccc1NC(=O)C(C)OC(=O)C1COc2ccccc2O1 (stereo unspecified)	-25	10	101	97
CC1(C)C(=O)Nc2ccccc2N1C(=O)COc1ccc(S(=O)(=O)N2CCOCC2)cc1Cl	-17	1	106	103
O=C1Nc2cc(C(=O)N3CCc4ccccc4C3)ccc2Sc2ccccc21	-14	19	101	103
COc1cc(/C=C/C(=O)OCc2cc(=O)n3ccsc3n2)ccc1OC(F)F	6	44	102	106
Cc1nc2sccn2c1-c1csc(Nc2ccc(C(=O)O)cc2)n1	-7	12	104	100
CCc1nc2ccc(N)cc2[nH]1	-20	36	99	98
Cc1ccc2[nH]c(=O)c(-[n+]3ccccc3)c(-c3ccccc3)c2c1	-26	2	101	93
CCOc1cc(C=C2C(=O)N(C)C(=S)N(C)C2=O)ccc1OC(C)C(=O)O (stereo unspecified)	-40	-25	97	102
Cc1nnc2c(SC(C)C)nc3ccccc3n12	-17	6	102	103
O=c1cc(-c2ccccc2)oc2c(O)c(O)ccc12	0	25	98	92
CN(C)S(=O)(=O)c1ccc(C(=O)OCC(=O)c2csc(N3CCCCC3)n2)cc1	-27	2	105	109
C=CCNC(=O)c1cc2nc(C3CC3)cc(C(F)F)n2n1	10	-6	99	103
CCOC(=O)c1cnn(-c2cccc(C)c2)c1C1CCNCC1	-22	0	99	102
Cn1cc(CC(=O)NCCCN2CCOCC2)c2ccccc21	-11	-14	104	112
C=CCNC(=O)c1cc2cc(Cl)ccc2o1	-5	19	x	x
CN1CCC(OC(=O)c2cc3ccccc3o2)CC1	11	x	103	95
COc1ccc(OCC(O)Cn2nc(C)cc2C)cc1 (stereo unspecified)	-12	-9	103	107
CC(C)(C)C(=O)OC1OCCOC1NC(=S)N1CCCC1 (stereo unspecified)	4	-2	102	108
FC(F)(F)c1cccc(-n2cnnn2)c1	-8	-13	103	107
Cc1c(OC(C)C(=O)O)ccc2c3c(c(=O)oc12)CCCC3 (stereo unspecified)	-12	20	102	103
CCCNC(=O)C1CCCN(c2nnc(N3CCCC3=O)s2)C1 (stereo unspecified)	-9	-2	104	104
CN(C)S(=O)(=O)n1ccnc1	-23	6	104	100
NC(=O)c1cnn(-c2ccc(S(N)(=O)=O)cc2)c1NC(=O)c1c(F)cccc1F	-9	13	99	107
CC(NC(=O)C1CC1)C(c1cccs1)N1CCN(Cc2ccccc2)CC1 (stereo unspecified)	8	-5	100	102
CCOC(=O)N1CCC(NC(=O)c2ccc(CS(=O)(=O)c3ccccc3C)o2)CC1	-20	7	99	100
CCOC(=O)c1cnc(-c2ccccc2)nc1N1CCOCC1	13	-1	99	101
CCOc1ccc(S(=O)(=O)N(CC(=O)NC2CC2)c2ccccc2)cc1	-3	-12	104	111
c1ccc(Nc2nc3nonc3nc2Nc2ccccc2)cc1	-15	x	101	106
COC(=O)c1ccc(COC(=O)c2ccco2)cc1	-5	-17	100	103
CC(C)CCNC(=O)C1CCCN(S(=O)(=O)c2ccc3c(c2)CC(C)N3C(=O)C2CC2)C1 (stereo unspecified)	-31	-6	107	100
CC(=O)Nc1ccc(NC(=O)[C@@H](NC(=O)c2ccc(F)cc2)C(C)C)cc1	-13	-11	103	106
O=C(c1ccc(CS(=O)(=O)c2c(Cl)cccc2Cl)o1)N1CCN(Cc2ccccc2)CC1	-6	10	102	105
Cc1cccc(NC(=S)N(C)C2CCCCC2)c1	-14	-16	104	107
Cc1ccc2nc(NS(C)(=O)=O)sc2c1	-18	-7	103	102
Cc1cc(C)n(-c2ccc(CC#N)cc2)n1	-11	-4	108	113
CCOC(=O)c1oc2ccccc2c1COC(=O)CCC(=O)c1ccccc1	-6	-5	101	104
COc1cccc(-c2cc(C(=O)NC3CC3)[nH]n2)c1	-12	1	102	106
C(=N/n1cnnc1)/c1ccc(N2CCCCC2)cc1	3	-8	100	105
CCOc1ccc(C(=O)Nc2c(N)nc(SC)[nH]c2=O)cc1	-13	-1	98	106
O=C(Cn1c(=O)c2cccn2c2ccccc21)NC1CCCc2ccccc21 (stereo unspecified)	14	5	104	98
CCN(CC)S(=O)(=O)c1cc(C(=O)O)ccc1OC	1	1	101	100
CCCc1nnc(SCc2nnc(-c3ccccc3)o2)o1	-51	4	103	98
N#CC(C#N)C(CC(=O)c1cccs1)c1ccccc1 (stereo unspecified)	26	6	100	100
CCN1CCN(C(=O)c2cn(-c3ccccc3)nc2-c2ccccc2)CC1	2	-5	105	110
O=S(=O)(NNc1nccc(-c2cccnc2)n1)c1cccc(C(F)(F)F)c1	5	55*	101	97
O=C1CCCN2N=C(SCc3ccc(Br)cc3)SC2=N1	-17	-1	101	103
NC(=O)c1ccc(C(F)(F)F)cn1	-11	-15	100	109
O=C(NC(CO)C(=O)O)c1cncc(O)c1 (stereo unspecified)	-6	x	104	95
CCn1nc(-c2cccc(Br)c2)ccc1=O	-13	-6	105	107
O=C(NCC1CCCO1)c1ccc(CS(=O)(=O)c2cccc(C(F)(F)F)c2)o1 (stereo unspecified)	-16	7	101	103
CC(C)C1Nc2ccc(C(=O)N3CCN(c4ccccn4)CC3)cc2NC1=O (stereo unspecified)	-27	-20	103	102
COC(=O)c1ccc2c(c1)N(C)S(=O)(=O)c1cnc(SC)nc1-2	-16	2	101	104
Cc1ccc(CSc2nnc(-c3ccccc3N)c(=O)[nH]2)cc1	-6	2	101	102
